Calb FLC: C. albicans growth modulation with fluconazole; 300,000 tested, 0.57% active; growth inhibition, % (concentration not given with the values); C. albicans CaCi-2 (fluconazole-resistant clinical isolate) + fluconazole, Alamar Blue growth, 48 h; AID 1979;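 active means most replicates above 75%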;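 further: all wells also contain fluconazole at 8 µg/ml as a sub-toxic cotreatment; 0% = median of DMSO wells and 100% = median of geldanamycin control wells; wells of about 8 µL received 7.5 nL stock; the first replicate is given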
Beta2AR agonist: agonists of human beta-2 adrenergic receptor inducing internalization | 340,000 tested, 0.43% active | AID 504454 | Am2.2-beta2AR cells, FAP receptor internalization, flow cytometry; reference of the scale not given here | response, % (concentration not given with the values) | P07550;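 active means response above a set limit, near 3 SD of response in nonfluorescent compounds, cut at about 42% in these data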;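 further: stock transfer was 100 nL into about 11 µL; a reference agonist was the positive control; negative values mostly stem from fluorescent compounds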
LANA-H2B inh: blocks KSHV LANA binding to histone H2A/H2B; Q9QR71; cell-free LANA-H2A/H2B peptide, fluorescence polarization; inhibition, % (no concentration beside the values); 320,000 tested, 0.6% active; AID 2629; in the data active means inhibition mostly above about 10%, no sharp cut-off; inactive means mostly below about 6.7%;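 further: stock transfer was 7.5 nL into about 10 µL; 0% = median of vehicle wells and 100% = median of positive control wells; one replicate is shown; the record names a cut of 25% in any replicate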
Target sequence (Q9QR71 whole entry, looked up): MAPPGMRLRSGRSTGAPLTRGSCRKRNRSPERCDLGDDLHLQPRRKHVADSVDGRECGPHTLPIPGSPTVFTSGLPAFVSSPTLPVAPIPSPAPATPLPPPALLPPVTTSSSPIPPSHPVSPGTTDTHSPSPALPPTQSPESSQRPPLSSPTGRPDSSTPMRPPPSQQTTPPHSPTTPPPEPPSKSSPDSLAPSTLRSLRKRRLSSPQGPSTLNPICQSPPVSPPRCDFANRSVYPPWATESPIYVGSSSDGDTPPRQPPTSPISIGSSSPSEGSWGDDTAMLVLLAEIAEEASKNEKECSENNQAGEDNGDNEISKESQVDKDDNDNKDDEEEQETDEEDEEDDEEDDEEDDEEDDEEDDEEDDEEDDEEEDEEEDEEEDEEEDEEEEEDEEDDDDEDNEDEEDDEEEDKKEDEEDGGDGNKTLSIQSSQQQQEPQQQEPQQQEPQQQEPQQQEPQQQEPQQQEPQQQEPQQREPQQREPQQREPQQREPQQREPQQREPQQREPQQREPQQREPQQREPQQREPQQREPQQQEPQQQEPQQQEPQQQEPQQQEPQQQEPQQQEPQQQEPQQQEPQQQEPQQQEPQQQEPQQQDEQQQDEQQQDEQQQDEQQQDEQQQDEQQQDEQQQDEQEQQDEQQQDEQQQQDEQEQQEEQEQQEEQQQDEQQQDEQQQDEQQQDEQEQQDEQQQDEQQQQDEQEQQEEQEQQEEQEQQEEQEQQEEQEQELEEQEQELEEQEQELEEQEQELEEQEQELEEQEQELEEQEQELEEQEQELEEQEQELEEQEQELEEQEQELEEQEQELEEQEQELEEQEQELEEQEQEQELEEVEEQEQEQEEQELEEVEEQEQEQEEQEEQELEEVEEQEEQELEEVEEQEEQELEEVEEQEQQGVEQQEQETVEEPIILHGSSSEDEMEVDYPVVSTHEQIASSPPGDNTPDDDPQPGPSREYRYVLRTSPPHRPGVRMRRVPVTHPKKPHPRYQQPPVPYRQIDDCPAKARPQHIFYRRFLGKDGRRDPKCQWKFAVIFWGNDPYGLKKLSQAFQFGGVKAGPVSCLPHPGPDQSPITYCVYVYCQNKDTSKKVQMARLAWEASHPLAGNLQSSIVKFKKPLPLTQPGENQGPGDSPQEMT
Beta cell apopt: blocks beta cell apoptosis; INS-1E cytokine-induced death, ATP luminescence, 48 h; percent of positive-control rescue, neutral wells zero; protection from apoptosis, % (concentration not given with the values); 300,000 tested, 0.8% active; AID 435005;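 active means all replicates at 75% or more, or half of them and the mean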;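 further: 0% = cytokine-treated negative control wells and 100% = positive control rescue; higher means more ATP so stronger rescue from cytokine killing; wells of about 40 µL received 100 nL stock; the first replicate is given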
ALR inh: human ALR oxidase inhibition via reduced H2O2 | P55789 | purified ALR, DTT oxidation, H2O2 HRP-luminol luminescence | inhibition, % (concentration not given with the values) | 290,000 tested, 3.8% active | AID 485317;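 active means mean and each replicate at 75% or more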;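 further: stock transfer was 7.5 nL into about 7.5 µL; 0% = neutral wells and 100% = wells with inactivated enzyme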
Ecoli rRNA inh: inhibits bacterial ribosomal RNA function over humanized ribosomes; E. coli WT GFP vs humanized-ribosome RFP mutants, fluorescence, 24 h; stronger effect = lower value; DMSO median 0, no signal -100; AID 720706; 350,000 tested, 1.6% active; GFP signal change (wild-type ribosome), % (concentration not given with the values);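 active means significant combined selectivity score with lowered wild-type GFP, culture density cut under 30%, mutant RFP and density less affected; inactive means any of these conditions unmet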; further: one replicate is shown; some compounds called inactive have numbers as strong as hits
Bfl-1 A1 inh: inhibitors of the anti-apoptotic protein A1, read as caspase activation; caspase activation, % (test concentration not listed); MEF A1-2A-BIM cells, Caspase-Glo 3/7 luminescence, 3 h; percent of clofoctol response, vehicle zero; 330,000 tested, 0.066% active;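 active means over half of replicate activation scores above 10%, or exactly half above 10 with the replicate mean above 10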;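 further: wells of about 30 µL received 50 nL stock; many hits fall short of the cut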
T cruzi repl: T. cruzi replication inhibition. inhibition, % (test concentration not listed). 300,000 tested, 1.4% active. T. cruzi beta-gal in NIH3T3, luminescence, 90 h;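 active means mean inhibition across valid replicates above about 55%, limit read from the data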;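 further: signal also drops with host cell toxicity which is not excluded here; 0% = plate median of DMSO wells and 100% = zero luminescence signal; higher percent means less beta-gal luminescence so fewer parasites; stock transfer was 50 nL into about 50 µL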
Ecoli rRNA inh OD600: recorded beside Ecoli rRNA inh, whose call it bears; OD600 change, %; measured here: OD600 growth;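 optical density of the mix in the first replicate; 0 = DMSO median and -100 = no signal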
Ecoli rRNA inh RFP: further read-out of Ecoli rRNA inh, marked with its call; RFP signal change, %; measured here: RFP humanized mutant strains;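 first replicate; 0 = DMSO median and -100 = no signal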
* marks the source's active call; other numbers are inactive results; . = no result given.

The line under a structure holds: Calb FLC, Beta2AR agonist, LANA-H2B inh, Beta cell apopt, ALR inh, Ecoli rRNA inh, Ecoli rRNA inh OD600, Ecoli rRNA inh RFP, Bfl-1 A1 inh, T cruzi repl
CCc1c(C)nc(N)nc1Cl
 : -17, 8, 0.7, 0, -4, 10, 16, 9.4, 0.4, -11
COC(=O)c1cccc(NC(=O)c2ccccc2)c1
 : -3, 1, -2.8, -1, 7, -6, 6, -1.7, -3.3, -1
CSc1ccc(CN(C)CC(=O)Nc2c(F)cccc2F)cc1
 : -12, 0, 1.1, -1, ., -14, -13, 1.3, 0.5, 9
COc1ccccc1NC(=O)N1CCCC1C(=O)NCc1ccc(F)cc1 (stereo unspecified)
 : -20, -5, 2.3, 3, 8, ., ., ., -0.1, 2
C/C(=N\NC(=S)NCc1ccccc1)c1ccc2ccccc2c1OC(F)F
 : 25, -8, 3.9, 3, -5, 2, 4, 1.9, 0.8, 33
CC(=O)c1cc(CN2CCN(C3CCCCC3)C(CCO)C2)cs1 (stereo unspecified)
 : 6, 1, 0.2, 4, ., 14, 12, -0.1, 0.1, -4
Nn1c(Cc2cccc3ccccc23)nnc1SCc1ccccc1Cl
 : 6, -3, -1.1, -9, 87*, ., ., ., 0.3, 19
CCc1cc(=O)[nH]c(SCC(=O)N2CCCC2)n1
 : -2, 2, -7.0, ., 0, 9, 5, -2.4, 0.6, -10
CCCn1nc(C(=O)NC2CCCC2)c2ccccc2c1=O
 : ., -7, -2.3, 1, -3, -1, 0, -2.8, 0.2, .
N#CC1(Cc2ccc(Cl)cc2)c2ccccc2C=CN1C(=O)c1ccccc1 (stereo unspecified)
 : -3, 7, -0.9, 2, -9, ., ., ., -0.3, 11
COc1ccc([C@H]2[C@H](C(=O)C(C)(C)C)N3N=Cc4ccccc4C3C23C(=O)OC(C)(C)OC3=O)cc1 (stereo partly specified)
 : -7, 1, 1.2, -3, 95*, ., ., ., -0.1, 2
Cc1ccc(S(=O)(=O)N(CC(=O)O)Cc2ccco2)cc1
 : -5, -3, 1.7, -11, 1, 1, 3, 14, 0.5, -14
CCOc1ccc(Nc2cc(=O)[nH]c(=O)[nH]2)cc1
 : 0, 7, 3.3, 0, -3, 8, 5, -2.4, 0.3, -10
CCOCc1cc(CN2CCC(CCC(=O)NC3CC3)CC2)ccc1OC
 : -8, 5, -0.8, ., -1, 18, 13, 1.6, -0.2, 4
O=C(Nc1ccncc1)c1ccc2c(c1)C(=O)N(C1CCCCC1)C2=O
 : 0, 6, -0.8, -4, -4, ., ., ., -1.1, -5
CCCNC(=O)Cc1c(C)n(C(=O)c2ccc(Cl)cc2)c2ccc(OC)cc12
 : 8, -3, -1.1, -5, -1, 4, 1, 5.7, 1.0, 10
O=C(CNC(=O)c1ccco1)N=Nc1c(O)[nH]c2ccc([N+](=O)[O-])cc12
 : 13, -12, -1.5, -1, ., 1, -1, -4.2, 0.6, 2
CCOC(=O)c1sc2nc(CSc3ccccc3Cl)[nH]c(=O)c2c1C
 : 3, -6, -7.0, 2, -1, 6, -7, -1.1, 0.9, 14
Cc1cc(=O)oc(C)c1C(=O)NCCN1CCOCC1
 : -13, 0, 4.1, -1, -1, ., ., ., 1.3, -8
O=C(NCc1nc2ccccc2[nH]1)C1=C[C@@H](C2CCCCC2)C[C@@H](OCc2ccc(CO)cc2)O1
 : 31, 8, 1.4, 106*, -16, 4, -10, -5.0, 1.2, 38
Cc1ccc(C)c(OC2=NS(=O)(=O)c3ccccc32)c1
 : -18, 2, 0.8, -4, -3, 19, 9, 1.2, -1.0, -20
COc1cc(Cl)cc(C(c2c(C(=O)O)[nH]c3ccccc23)c2c(C(=O)O)[nH]c3ccccc23)c1O
 : 1, -3, -4.8, ., ., 21, 13, 3.8, -0.6, 9
Nc1ccc(Oc2ccc3c(c2)C(=O)N(CC2CCCO2)C3=O)cc1 (stereo unspecified)
 : -35, -5, 0.0, 2, -9, -8, 9, 5.1, -0.5, -18
COc1ccnc(N2CCN(c3ccccc3)CC2)c1C#N
 : 79*, 4, 2.6, ., 99*, -4, -3, -4.0, -1.1, 2
COc1ccccc1NC(=O)Cn1c(CN2CCCCC2)nc2ccccc2c1=O
 : -19, -15, -2.5, 10, -6, 0, 3, -0.7, -0.2, 12
Cc1ccc2nc(Nc3ccc(C)c(Cl)c3)c3nncn3c2c1
 : 16, -8, -2.2, -6, -2, 17, 8, -1.2, 0.4, 24
O=C(Nc1cccnc1)c1ccccc1F
 : -11, -8, -1.7, 0, 1, ., ., ., 1.3, -12
CC(C)CN(C(=O)CSc1nc2ccccc2o1)c1c(N)n(Cc2ccccc2)c(=O)[nH]c1=O
 : ., -2, -1.4, -1, -2, -1, 14, -3.8, -0.1, .
c1ccc(-c2nnc(SCc3cn4ccsc4n3)o2)cc1
 : 3, -12, 1.0, -5, -5, ., ., ., 0.5, -1
CC(C)CCNS(=O)(=O)c1ccc(-c2ccc(S(=O)(=O)NCCC(C)C)cc2)cc1
 : 0, -1, 0.6, -2, 0, 11, 3, 4.1, 0.5, -17
O=c1oc(-c2cccs2)nc2sc3c(c12)CCCC3
 : 13, 27, 3.4, ., -2, ., ., ., -6.1, -3
CCOC(=O)c1c(CCl)nc2ccccc2c1C
 : 24, -3, -0.7, -11, 0, 7, 9, 9.0, -1.6, 1
COc1cccc(NC(=S)NC(=O)Cc2ccc(Cl)cc2)c1
 : -4, 15, 1.8, -4, -1, -31, -48, -8.1, -1.0, -6
Cn1c(=O)c2c(nc(CN3CCc4ccccc4C3)n2Cc2cccc(Cl)c2)n(C)c1=O
 : -2, 24, -2.5, -3, -5, -3, -3, 1.4, 0.2, 46
CC(C)(O)c1[nH]c2cc(F)ccc2c1C(C)(C)O
 : 35, 4, 0.4, -7, -2, ., ., ., 1.0, 18
Cc1ccc(/C=N/NC(=O)CCCOc2ccc(Cl)cc2Cl)cc1[N+](=O)[O-]
 : 8, 0, -2.9, -3, -13, ., ., ., 0.6, 18
COc1ccc2[nH]cc(CCNC(=O)c3ccc4ccccc4n3)c2c1
 : 6, 0, -6.9, 16, -6, -15, -8, 6.0, -1.2, -7
COc1ccc2oc(C(=O)NC3(C)CCS(=O)(=O)C3)c(C)c2c1 (stereo unspecified)
 : 1, -2, -2.2, -1, 1, 4, 10, -0.6, 0.7, 4
COc1cc(C(=O)NC(=S)Nc2ccc(Cl)cn2)cc(OC)c1OC
 : 19, -21, -2.5, 2, 0, 2, 20, 0.7, -0.8, 4
Cc1ccc(N2CC(C(=O)OCc3ccccc3F)CC2=O)cc1 (stereo unspecified)
 : 1, 2, -2.7, -9, 0, ., ., ., -0.4, -3
CCC(CO)Oc1cc(NCc2cc(C)cc(C)c2)c2ncn(C(C)C)c2c1 (stereo unspecified)
 : ., 10, -3.1, -11, 3, 4, -8, 5.6, -0.4, .
COc1ccc(NC(=S)NNC(=O)OC(C)(C)C)cc1OC
 : 11, 4, 33*, -3, 62, ., ., ., -0.3, -6
CC(C)n1cc(CN2CCCC(C(=O)Nc3cccc(-c4cc5ccccc5[nH]4)c3)C2)cn1 (stereo unspecified)
 : 6, 30, -1.4, 7, -5, -69, -84, -22, 0.3, 45
O=C(CS(=O)(=O)c1ccccc1)Nc1nc(-c2ccc(F)cc2)cs1
 : 7, 4, 1.3, -2, 0, -21, -10, -10, -0.6, -21
S=C1NCN(Cc2ccco2)CN1
 : -2, -1, 5.3, 2, 0, 19, 12, 1.2, -0.4, -1
CC(C)(C)c1ccc(CN(Cc2ccccc2)C(c2ccccn2)c2nnnn2C(C)(C)C)cc1 (stereo unspecified)
 : -5, 17, 0.9, 44, -8, ., ., ., 0.0, 62*
Cc1ccc(C2(C)NC(=O)N(CCOc3ccccc3)C2=O)cc1 (stereo unspecified)
 : 2, -2, -0.4, -13, -14, -33*, -16*, -1.3*, 0.3, 16
CCSc1c(C(=O)NC)ccc2c1C(=O)c1ccccc1C2=O
 : 6, -12, -2.7, 1, -2, ., ., ., -0.5, -1
C=C1CC[C@@]23CC[C@]4(C)[C@@](OC2=O)([C@@H]3C1)[C@H]1O[C@H]1C1[C@@]2(C)CC[C@H](O)C(C)(C)C2CC[C@]14C (stereo partly specified)
 : ., -1, -3.5, 6, ., ., ., ., 0.5, .
O=C(NCCc1ccccc1)c1nc(-c2cccs2)no1
 : -15, -2, 2.4, -4, ., -10, -29, -2.9, 0.2, -1
COc1ccc(-c2cc(C(F)(F)F)nc(N3CCCCCC3)n2)cc1
 : -10, 0, 1.7, ., 0, ., ., ., 0.3, 9
CCN(CC)C(=O)c1cn(CC)c(=O)c2cc(OC)c(OC)cc12
 : 4, 0, 3.1, 2, 0, ., ., ., -0.1, -15
COc1ccc(OC)c(-n2c(=S)[nH]c3cc(C(=O)NCCCN4CCCC4=O)ccc3c2=O)c1
 : -2, ., 0.3, -1, 0, ., ., ., 0.3, 8
C/C(=N\N1CCN(c2ccc(Cl)cc2)CC1)c1ccco1
 : 5, 1, 0.9, 1, 8, ., ., ., 0.0, 5
O=C(COC(=O)C1CC2C=CC1C2)Nc1ccccc1 (stereo unspecified)
 : 4, 0, -0.4, -2, ., ., ., ., -1.3, -13
O=C(CCc1ccccc1)Nc1ccc(NS(=O)(=O)c2ccccc2)cc1
 : -10, -1, 0.9, -7, -3, 4, 2, 1.3, 0.5, -10
COCCCNC(=O)CN(c1cc(Cl)ccc1OC)S(C)(=O)=O
 : -5, -1, -6.8, 1, -1, 10, 7, -1.3, 0.3, 4
CCOC(=O)c1c(C)n(C)c2ccc(O)c(CN3CCCCC3)c12
 : 1, 2, 9.6, 0, 18, ., ., ., 0.3, 15
O=S(=O)(c1ccc(Cl)cc1)n1cccn1
 : -5, -3, -8.0, -4, 5, 11, 5, -2.6, -0.3, -13
CNC(=O)CC1C(=O)N(C)C(=S)N1NC(=O)c1ccccc1 (stereo unspecified)
 : 6, -3, -2.5, -1, 7, 3, -6, -3.6, -0.3, -9

Later entries:
The line under a structure holds: Calb FLC, Beta2AR agonist, LANA-H2B inh, Beta cell apopt, ALR inh, Ecoli rRNA inh, Ecoli rRNA inh OD600, Ecoli rRNA inh RFP, Bfl-1 A1 inh, T cruzi repl
CC(C)Oc1ccc(C(CC(=O)O)NC(=O)CSc2ncn[nH]2)cc1 (stereo unspecified)
 : -6, -1, -3.2, -2, -3, ., ., ., -0.5, -10
Cc1cc(OCCCn2cnc3ccccc3c2=O)ccc1[N+](=O)[O-]
 : 1, -5, -2.1, -9, -1, 3, 16, -4.7, -0.2, 4
CC(C)(C)c1ccc(-c2nnc(SCC(=O)O)n2N)cc1
 : -18, 6, -4.2, -1, 70, ., ., ., -0.4, -9
CC(Sc1nc(N)cc(N)n1)C(=O)NCC1CCCO1 (stereo unspecified)
 : ., 0, -8.6, -2, -2, 8, 12, -2.6, 0.2, .
Cc1nn(Cc2noc(C(=O)NCC3CCCO3)n2)c(C)c1Br (stereo unspecified)
 : 5, -4, ., ., 0, 0, 2, -0.1, ., -2
CCN1CCN(c2cc(C)c3cc(NC(=O)c4ccc5c(c4)OCO5)ccc3n2)CC1
 : -8, 37, -1.8, 0, 84*, 5, 8, 4.5, 0.4, 15
CN(C)c1ccc(-c2nnn(CC(=O)NCc3ccc4c(c3)OCO4)n2)cc1
 : -34, -14, -3.6, -6, 3, 18, 13, -0.4, -2.0, 9
CCCCCOC(=O)NCCOC(=O)Nc1ccc(C(=O)OCC)cc1
 : 18, -6, -0.2, ., -14, ., ., ., 0.2, 12

Screens from PubChem.

This is a subset; the hit share may differ from the screen's.
